Mtb hypoxia rep – PubChem AID 1159583 | M. tuberculosis hypoxia-regulated fluorescent reporter, fluorescence | fluorescence inhibition, % (test concentration not listed) | 300,000 compounds, 0.1% hits;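 active means 35 to 45% if threefold the growth effect, above 45% if 1.5-fold the growth effect; inactive means the rest, general growth blockers included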;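 further: wells of about 50 µL received 100 nL stock; 0% = vehicle wells and 100% = reference inhibitor wells; whole bacteria with a GFP reporter of the hypoxia response; strong numbers were not always called active; many hits fall short of the cut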
Sa RN4220 lethal – growth inhibition of S. aureus RN4220, primary screen, OD600; 16 h; inhibition, % (no concentration beside the values); 330,000 compounds, 0.33% hits;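 active means z-score of -3 or lower and OD600 up to 0.18 on both plates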;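 further: plate controls were untreated cells for no effect and reference antibiotic for full effect; stock transfer was 100 nL into about 80 µL; one replicate is shown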
ugtP null kill – growth inhibition of ugtP-null S. aureus, primary screen, RN4220 ugtP deletion, OD600; 16 h; some inactives read as strong as hits; growth inhibition, % (test concentration not listed); 330,000 compounds, 0.54% hits;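 active means z-score under -3 and OD600 up to 0.15 on both plates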;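 further: plate controls were untreated wells for no effect and antibiotic for full effect; wells of about 80 µL received 100 nL stock; the first replicate is given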
BJeLR viability – MLPCN primary cell-based screen for lethality selective to Ras in HRASV12 cells; BJeLR (HRASV12) viability, CellTiter-Glo ATP luminescence, 48 h; reference of the scale not given here; 300,000 compounds, 0.17% hits; inhibition, % (test concentration not listed);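 active means replicate mean above 50%; inconclusive means above 50% but judged a plate artefact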;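 further: 50 nL library stock added to about 25 µL; numbers are from one replicate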
Bead autofluor – compound fluorescence in toxin protease inhibitor counterscreen. 360,000 compounds, 3.1% hits. fluorescence intensity (no concentration beside the values). compound autofluorescence counterscreen, microsphere flow cytometry; active compounds read high;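 active means at least 3 SD above the mean of all compounds, about 16000 in these data; inconclusive means too few beads counted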;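 further: 100 nL of 1 mM stock went into each well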
PrP 5UTR inh – inhibition of PrP 5' UTR reporter expression | cell-based PrP 5' UTR mRNA reporter, plate reader | 340,000 compounds, 0.35% hits | inhibition, % (test concentration not listed);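 active means every replicate at 50% or more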;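 further: 0 = median of the neutral control wells; tested in H4 reporter cells; numbers are from one replicate; inactives centre near -14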
Mtb hypoxia rep growth – recorded beside Mtb hypoxia rep, whose call it bears; growth inhibition, %; measured here: M. tuberculosis growth (absorbance);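 0% = vehicle and 100% = reference antibiotic; read after six days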
Active calls of the source: *; ? = inconclusive; / = not tested or not shown; & = joins results of further samples; ! = not active in a repeat.

SMILES	Mtb hypoxia rep	Mtb hypoxia rep growth	Sa RN4220 lethal	ugtP null kill	BJeLR viability	Bead autofluor	PrP 5UTR inh
CC(NC(=O)c1cccs1)c1nnc(SCc2ccc(Cl)cc2Cl)n1C (stereo not given)	/	/	5.9	-4	2	2439	-11
Cc1c(Cl)cnc(NC(=O)COC(=O)[C@@H](NC(=O)c2ccco2)C(C)C)c1Cl	4	3	5.2	-2	/	?	6
CCOc1ccccc1NC(=O)Nc1cccc(C(C)=O)c1	-3	9	-7.3	-14	-1	23270*	-6
CCCCn1c(=O)[nH]c(=O)c2c1nc(-c1ccc(CC)c([N+](=O)[O-])c1)n2C	3	-11	1.8	-68	1	/	/
CC(=NNc1ccccn1)c1ccc(S(=O)(=O)NCc2ccco2)cc1	1	-9	7.7	-4	/	/	/
CN(N=Cc1ccncc1)c1cnc2ccccc2n1	0	0	-5.3	7	/	/	/
O=C(NCc1ccccn1)c1ccc2c(c1)N(Cc1ccccc1)CCS2	-14	-36	-1.6	10	-9	4730	-35
COc1ccc(OC(=O)COc2ccccc2C)cc1	-2	14	1.2	1	-5	/	/
O=C(CCc1nnc(Cc2ccc3c(c2)OCO3)o1)NCCc1ccccc1Cl	-1	-5	-4.2	2	-5	5305	-6
COCCNC(=S)N/N=C(\C)c1ccccc1OC	/	/	/	/	-8	2240	-14
Cc1ccccc1N1C(=O)c2cccc3cccc(c23)C1=O	7	11	-0.9	3	-12	3629	-9
Cn1c(=O)[nH]c(=O)c2c1nc(N1CCOCC1)n2CC(O)COc1ccc2ccccc2c1 (stereo not given)	/	/	0.0	5	8	2398	1
c1nnnn1C12CC3CC(CC(C3)C1)C2	3	6	5.4	5	-6	2473	-2
Cc1[nH]c2ccccc2c1C(c1ccncc1)N1CCN(c2ccccn2)CC1 (stereo not given)	/	/	/	/	6	3478	-34
Cc1cc(OCC(=O)N[C@@H](Cc2c[nH]c3ccccc23)C(=O)O)c2c(C)c(C)c(=O)oc2c1	/	/	4.8	-10	0	6137	-37
CCN(c1ccccc1)S(=O)(=O)c1c[nH]c2ccc([N+](=O)[O-])cc12	6	1	-7.2	-7	0	5709	-9
COC(=O)c1cc(Cl)c(NC(=O)/C=C/c2ccc(OC)c(OC)c2)cc1OC	0	0	4.2	-17	-4	11349	-13
O=C1S/C(=C\c2ccccn2)C(=O)N1Cc1ccccc1F	-3	0	3.9	-3	-5	2456	-8
COc1ccc(-c2nc(O)c3cnccn23)cc1	1	-1	4.3	3	17	2321	-16
CCOc1c2ccccc2nn1CCO	11	9	4.2	-8	/	2934	-22
CC(C)C[C@@H](N)c1nnc(SCC(=O)c2ccc(Cl)cc2)o1	2	6	7.1	2	6	9638	/
CCCNC(=O)c1sc2c(c1C(=O)Nc1ccccn1)CCCC2	0	-11	7.3	5	3	4536	-1
CC(=O)Nc1cc2c(cc1Cl)-c1ccc(F)cc1C2O (stereo not given)	-4	8	0.2	-5	/	4004	1
Cc1cc(C)n(S(=O)(=O)c2ccc3oc(=O)ccc3c2)n1	8	-5	1.7	18	-4	3050	-4
COc1ccc(N2C(=O)C(Cl)=C(Nc3ccccc3OC)C2=O)cc1	5	2	5.1	6	-6	2154	-24
O=C(Nc1ccc(Cl)cc1)N(C1=NCCC1)c1ccc(OC(F)F)cc1	12	5	3.9	-13	4	4253	-25
C/C(=N\Nc1nc2ccccc2[nH]1)c1cc2ccccc2o1	/	/	/	/	6	1934	-19
O=C(CN(Cc1ccccc1)C(=O)CCC(=O)Nc1nccs1)NCc1ccc(F)cc1	1	-13	4.2	3	-11	3455	-26
CCOc1cc(N2CCOCC2)c(OCC)cc1NC(=O)c1cccc(N(C)C)c1	5	3	10	12	-2	4524	7
Cn1c(CN2CCOCC2)nnc1SCC(=O)NC1CCCCC1	14	11	1.3	1	-13	8539	-21
Cc1cc(NC(=O)CSc2nnc(-c3c[nH]c4ccccc34)n2C)no1	0	0	-0.2	-3	-8	5654	-11
CC(c1ccccn1)N(CCN(C)C)C(=S)Nc1ccccc1F (stereo not given)	3	8	1.8	3	-16	11012	-11
Cc1cccc(C(=O)N(c2ccccn2)C(C)c2ccco2)c1 (stereo not given)	18	8	6.9	4	7	4947	-27
O=C(Nc1ccc2c(c1)OCO2)Nc1ccc(Br)cn1	5	-4	3.9	1	2	7801	-38
Cc1c(C)c2ccc(OCC(=O)Nc3ccc(N4CCC(C)CC4)cc3)cc2oc1=O	12	5	1.7	5	4	4012	-26
O=C(NC1CCCC1)C1CC(=O)N(CCc2ccccc2)C1 (stereo not given)	11	9	8.0	4	13	2440	-45

Fetched by structure from above, 3 records:
SMILES	Mtb hypoxia rep	Mtb hypoxia rep growth	Sa RN4220 lethal	ugtP null kill	BJeLR viability	Bead autofluor	PrP 5UTR inh
C/C(=N\Nc1nc2ccccc2[nH]1)c1cc2ccccc2o1	/	/	/	/	6	1934	-19
Cc1cc(OCC(=O)N[C@@H](Cc2c[nH]c3ccccc23)C(=O)O)c2c(C)c(C)c(=O)oc2c1	/	/	4.8	-10	0	6137	-37
CCOc1cc(N2CCOCC2)c(OCC)cc1NC(=O)c1cccc(N(C)C)c1	5	3	10	12	-2	4524	7

The list goes on.
SMILES	Mtb hypoxia rep	Mtb hypoxia rep growth	Sa RN4220 lethal	ugtP null kill	BJeLR viability	Bead autofluor	PrP 5UTR inh
CCN(C[C@H]1N[C@@](CC)(C(=O)OC)[C@H]2C(=O)N(C)C(=O)[C@@H]12)C(=O)C1CCCCC1	2	0	-1.9	6	/	3024	-30
O=C1c2ccccc2C(=O)N1CCC#Cc1ccc2cc(C3(O)CCCCC3)oc(=O)c2c1	1	1	8.1	-24	/	3517	-8
CN(c1ccc(C(=O)Nc2ccccn2)cc1)S(=O)(=O)c1ccccc1	4	4	3.3	9	4	3492	-30
O=C(c1cncc(Br)c1)N1CCN(S(=O)(=O)c2ccccc2)CC1	7	3	2.5	2	5	4242	-14
O=c1[nH]c(=O)n(C2CCCCCC2)c(O)c1C=NCCCN1CCOCC1	/	/	0.7	-2	9	3433	-1
CCn1c(CNC(=O)c2ccc(Cl)cc2)nnc1SCC(=O)NC1=NCCS1	11	-1	2.1	15	-1	3616	-19
CCCOc1ccc(-c2c(C(=O)NN=C(C)c3cccnc3)nnn2-c2nonc2N)cc1	12	0	4.1	6	/	/	/
CCOC(=O)/C(=N\Nc1ccccc1)c1csc(Nc2ccc(C)cc2)n1	/	/	/	/	1	9490	-23
COc1ccc(NS(=O)(=O)c2cccc(C(=O)NNC(=O)c3ccccc3O)c2)cc1	6	0	8.9	3	18	3922	1
CCOC(=O)N1CCN(C(=O)CSc2ncccn2)CC1	-3	4	5.6	2	-5	9927	-22
Cc1ccc(C(=O)NCCNC(=O)CN2CCCC2)cc1	5	3	1.4	2	1	3887	-6
Cc1cccc(NS(=O)(=O)c2ccc(NC(=O)CN(c3cc([N+](=O)[O-])ccc3C)S(C)(=O)=O)cc2)c1	/	/	/	/	69*	7594	9
CC(C)c1[nH]nc2c1C(c1ccc(OC(=O)c3ccco3)cc1)C(C#N)=C(N)O2 (stereo not given)	2	13	11	11	1	13722	-9
O=C(c1ccc2c(=O)n(C3CCCC3)c(=S)[nH]c2c1)N1CCc2ccccc21	1	6	-9.2	-21	6	5442	-7
CC(=O)c1cnn(-c2cc(Oc3cccc(C)c3)ncn2)c1C	13	16	3.0	-1	-1	3216	-11
Cc1ccccc1OCc1nc2ccccc2c(=O)n1/N=C/c1cn[nH]c1-c1ccccc1	/	/	/	/	-1	7667	-19
O=C(c1ccc(C(F)(F)F)cc1)C1CCCN(C(=O)Cn2cnnn2)C1 (stereo not given)	2	-6	0.4	3	-5	4224	-14
O=C(Nc1ccc2c(c1)oc1ccccc12)c1cccnc1	/	/	-16	-9	-4	3064	-53
COc1cccc2c(=S)c(CCC(C)=O)c(C)[nH]c12	10	-5	8.3	7	-3	2462	-4
C=CCOc1ccc(/C=C/C(=O)OCC(=O)NCCc2ccccc2)cc1	16	8	2.9	20	0	4370	15
COC(=O)c1ccccc1S(=O)(=O)N(CCCN1CCOCC1)Cc1cccs1	/	/	5.0	10	-7	2442	-14
Cc1cc(C)cc(OCCCC(=O)O)c1	/	/	3.0	2	-2	4818	-7
O=c1c2ccccc2oc2cc(-c3ccc(CN4CCOCC4)cc3)ccc12	12	19	-1.4	-26	/	3899	-35
Cc1sc2nc(COC(=O)c3ccc(O)cc3)[nH]c(=O)c2c1C	19	1	5.2	10	-8	5249	2
CCc1cc(CNC(=O)c2ccc(OC3CCN(C(C)=O)CC3)c(OC)c2)on1	9	1	3.2	2	2	5834	-6
CSc1ccc(/C=N/NC(=O)CNc2cccc3ccccc23)cc1	/	/	/	/	0	2077	-31
CC(C)SC1=NC(C)(C)C=C(/C=C/c2c(Cl)cccc2Cl)N1	/	/	1.7	-2	-1	2472	-8
CCn1cc(Br)c(C(=O)Nc2ccc(F)c(Cl)c2)n1	7	13	-1.8	-3	-10	3649	-22
COc1ccc2nc(SCC(N)=O)[nH]c2c1	2	7	0.4	0	12	22930*	-4
CC(C)(C)c1ccc(S(=O)(=O)NC(Cc2ccccc2)C(=O)O)cc1 (stereo not given)	1	1	-0.3	2	3	10019	-15
COc1ccc(-n2c(COc3ccc4c(c3)OCO4)nnc2SCC(=O)O)cc1	5	2	3.5	2	1	4268	-5
Cc1cccc(OCC(=O)NCCCNC(=O)c2cccnc2)c1	7	-4	-3.7	7	2	3192	-21
CC(=O)c1ccc(S(=O)(=O)NCCC(=O)OCC(=O)N2CCCC2=O)cc1	-9	-5	1.0	5	-7	6321	-11
Cn1cnc2c1c(=O)n(Cc1cccc(Br)c1)c(=O)n2C	2	11	5.0	-10	-3	5564	-14
c1cncc(CNc2ncnc3ccc(-c4cccnc4)cc23)c1	6	7	-14	1	/	3435	-4
O=C(Nc1cccc(F)c1)N1CC=C(c2ccc(Cl)cc2)CC1	/	/	-8.2	-7	2	5131	-21

Just BJeLR viability, for some of the entries so far:
mol	BJeLR viability
CC(C)(C)c1ccc(S(=O)(=O)NC(Cc2ccccc2)C(=O)O)cc1 (stereo not given)	3
COc1ccc(-n2c(COc3ccc4c(c3)OCO4)nnc2SCC(=O)O)cc1	1

Next compounds:
SMILES	Mtb hypoxia rep	Mtb hypoxia rep growth	Sa RN4220 lethal	ugtP null kill	BJeLR viability	Bead autofluor	PrP 5UTR inh
CC(C)Oc1ccc(CCC(=O)NN=Cc2ccncc2)cc1	14	12	-0.2	0	/	/	/
O=C(c1ccc2c(c1)N(Cc1cccc(Cl)c1)C(=O)c1ccccc1S2(=O)=O)N1CCN(c2ccccn2)CC1	6	1	-3.0	4	13	4387	3
CN(CC(=O)Nc1c(Cl)cccc1Cl)C(=O)CC1OC(=O)c2ccccc21 (stereo not given)	2	-2	1.1	2	/	4109	-3
CSc1cccc(NC(=S)N2CCC(c3ccccc3)C2)c1 (stereo not given)	1	-4	3.0	1	-4	3927	-33
Cc1ccccc1NC(=O)NNC(=O)c1ccc2ccccc2c1O	0	-9	-0.2	10	6	4685	-18
O=C(c1c[nH]c2ccc(F)cc2c1=O)N1CCCCCC1	11	3	1.6	7	7	5916	-8
Cc1ccsc1C=NN1CCN(c2ccccc2)CC1	11	4	4.5	15	/	/	/
CCOC(=O)c1cnc2c(Cl)cccc2c1NCCCN1CCOCC1	15	4	7.6	7	3	4023	-86
COc1cccc(NC(=O)CN2C(=O)CSc3ccc(S(=O)(=O)N4CCOCC4)cc32)c1	6	-8	2.1	6	6	5464	-26
CCOCCn1ccc2c(OCC(=O)Nc3ccc(OC)cc3OC)cccc2c1=O	-5	8	-1.1	-4	5	6470	-13
CCc1nnc(NC(=O)CCc2ccc(C)o2)s1	6	10	5.5	-1	10	10756	-22
COC(=O)c1ccccc1S(=O)(=O)N1CCC(C(=O)NCC2CCCO2)CC1 (stereo not given)	1	6	-0.4	-2	12	6074	-21
O=C(O)C(Cc1ccccc1)N1C(=O)c2c(Cl)c(Cl)c(Cl)c(Cl)c2C1=O (stereo not given)	3&18	2&8	39&41	86*!	0	/	-27
CCOC(=O)c1cc(CC)sc1N1C(=O)CC(Sc2ncccc2C(=O)O)C1=O (stereo not given)	12	13	4.6	7	/	4318	-21
COc1ccc(NC(=O)CN2C(=O)NC3(CCCCCCC3)C2=O)cc1	-1	1	3.4	6	/	/	-24
C[C@H](CO)N1C[C@H](C)[C@@H](CN(C)S(C)(=O)=O)Oc2ccc(NC(=O)CCN3CCOCC3)cc2C1=O	3	1	4.4	0	/	3839	-14
CCN1CCN(c2cc(=O)n(C3CCCCC3)c(=O)[nH]2)CC1	-13	-9	0.5	-2	-1	6115	-4

Compound activity as filed in PubChem BioAssay.
